# Screening data: PubChem BioAssay, several laboratories
# Rce1 inh – inhibitors of yeast Ras-converting enzyme | Q03530 | yeast membranes, quenched prenylated peptide cleavage fluorescence | calls only | 290,000 tested, 0.27% active | AID 2563;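 active means fall in fluorescence gain of 50% or more versus controls, with final raw signal at or below 3038400; inconclusive means same 50% fall but final raw signal above 3038400; inactive means fall in fluorescence gain under 50%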;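 further: plate controls were neutral control wells for no effect and wells lacking membranes for full effect; tested at 10 µM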
# Target sequence (Q03530 whole entry, looked up): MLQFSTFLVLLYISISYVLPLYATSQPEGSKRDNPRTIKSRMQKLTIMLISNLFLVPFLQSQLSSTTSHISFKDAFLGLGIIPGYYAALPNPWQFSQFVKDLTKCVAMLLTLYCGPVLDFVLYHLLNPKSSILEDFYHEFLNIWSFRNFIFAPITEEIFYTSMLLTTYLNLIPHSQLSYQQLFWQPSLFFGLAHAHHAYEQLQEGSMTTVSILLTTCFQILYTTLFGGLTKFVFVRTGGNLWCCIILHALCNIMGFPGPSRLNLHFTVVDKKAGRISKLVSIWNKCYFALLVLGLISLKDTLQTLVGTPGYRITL
# PABP FP inh – PABP-poly(A) binding inhibition | P11940 | PABP-poly(A) RNA binding, fluorescence polarization | inhibition, % at 35 µM | 290,000 tested, 1% active | AID 2014;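 active means 50% or more with normal probe brightness, or confirmed in later tests; inconclusive means above 50% with abnormal brightness, or retests that disagree; inactive means below 50% or failed in later tests; about a fifth of its hits are not listed in these tables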;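 further: calls also rest on retests at 20 µM and on dose response follow-up; controls were probe without protein and protein plus probe with vehicle; some compounds called inactive have numbers as strong as hits; many hits fall short of the cut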
# MT1-MMP act inh – inhibitors of human MT1-MMP activation | P50281 | HT1080 RFP-PRO-GFP cells, GFP/RFP ratio fluorescence, overnight; percent of plate control window, DMSO zero | GFP/RFP ratio change, % at 20 µM | 360,000 tested, 0.061% active | AID 651647;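 active means GFP/RFP ratio change of at least 30% with cell ATP level not reduced by more than half and red fluorescence within 50% of control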; further: strong numbers were not always called active
#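 Test system: HT1080 RFP-PRO-GFP cells; Benchmarks: DMSO and RFP-L50D-GFP cell wells; Timing: cells overnight before dosing, compound overnight, 37 °C, 5% CO2; Compound: one 20 µM compound dose with 1% DMSO; Read-out: GFP/RFP fluorescence ratio.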
# Yeast UUG start – alters start codon recognition fidelity in yeast | S. cerevisiae UUG-firefly luciferase reporter, luminescence/redox ratio | activity score, % at 18.7 µM | 350,000 tested, 0.13% active | AID 602363;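 active means replicate mean at a twofold rise or more, about +100% in these data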;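 further: firefly luciferase made from a UUG start codon reports start codon fidelity; reporter light over untreated wells divided by growth signal over untreated wells; some hits fall short of that in this replicate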
# HIV Env fusion – blocks HIV Env-driven cell-cell fusion; AID 651610; inhibition, % at 12.3 µM; HeLa-JRFL Env/CEM21 cell fusion, luciferase; 360,000 tested, 1.1% active;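 active means mean replicate inhibition score of at least 50 and every replicate individually at or above 50; inconclusive means only one of the two criteria met; inactive means mean below 50 and not all replicates reaching 50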;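 further: 0% = plate neutral controls and 100% = maraviroc near 300 nM; one replicate is shown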
# CSC inhib – cancer stem cell inhibition; 300,000 tested, 1.1% active; cancer stem cell-like cells viability, luminescence; inhibition, % at 7.5 µM;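 active means mean at 75% or more and at least half the replicates too; inconclusive means mean and replicates disagree; tested in HMLE shEcad cells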;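 further: 0% = median of negative and 100% = median of positive control wells; the first replicate is given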
# eIF4H FP inh – inhibitors of RNA binding by human eIF4H. Q15056. eIF4H fluorescence polarization binding assay. inhibition, % at 35 µM. 290,000 tested, 0.94% active. AID 2012;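 active means 50% or more with normal probe brightness, or confirmed in later tests; inconclusive means above 50% with abnormal brightness, or retests that disagree; inactive means below 50% or failed in later tests; about a fifth of its hits are not listed in these tables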;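 further: calls also rest on retests at 20 µM and on dose response follow-up; 0% = protein and probe with vehicle and 100% = probe without protein; strong numbers were not always called active; many hits fall short of the cut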
# eIF4H FP inh retest – also measured in eIF4H FP inh; calls as there; inhibition, %; compound at 20 µM; confirmation average;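 mean of two retest wells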
# PABP FP inh retest – also measured in PABP FP inh; calls as there; inhibition, %; compound at 20 µM; confirmation repeats;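 mean of two retest wells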
# MT1-MMP act inh RFP – further read-out of MT1-MMP act inh, marked with its call; RFP signal change, %; measured here: RFP expression control read;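 0 = vehicle wells; hits needed this value within 50% of zero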
# An asterisk follows results filed as active; i = inactive; ? = inconclusive; / = not tested or not shown.
SMILES,Rce1 inh,PABP FP inh,MT1-MMP act inh,MT1-MMP act inh RFP,Yeast UUG start,HIV Env fusion,CSC inhib,eIF4H FP inh,others
Cc1csc(NC(=O)c2cc(=O)[nH]c3ccc(S(=O)(=O)N4CCOCC4)cc23)n1,i,-2,0,-1,6,14,-7,-5,
O=C1/C(=C/c2cccnc2)SC(=S)N1c1ccc(O)cc1,i,13,5,0,-8,6,46,-9,
O=C1CSC(c2ccccc2[N+](=O)[O-])N1CCc1ccccc1 (stereo unspecified),i,3,3,5,/,3,-9,-2,
COc1ccc(C2Nc3ccccc3NC3=C2C(=O)CC(C)(C)C3)cc1 (stereo unspecified),i,?,-13,8,-12,2,-10,?,
CCOc1ccc(OCCC(=O)N(CC)CC(=O)NCc2cccs2)cc1,/,/,1,-4,0,1,-2,/,
C=C(C)CNC(=S)NNC(=O)c1ccc(Br)cc1,i,-2,-1,-3,5,/,-14,2,
C=CCNC(=O)c1onc(CSc2cccc(OC)c2)c1C(=O)NCC=C,i,4,/,/,-18,26,-10,6,
COc1ccccc1CC(=O)NCCc1c[nH]c2ccccc12,i,-1,1,0,-1,1,-3,3,
COC(=O)c1ccccc1N(C)S(C)(=O)=O,i,-7,0,8,-4,-1,/,-1,
CCOC(=O)C1CCN(c2c(NCCCN3CCCCC3)c(=O)c2=O)CC1,i,-5,4,6,5,-8,-6,0,
O=C1NCC(COc2ccc([N+](=O)[O-])cc2)O1 (stereo unspecified),i,3,2,6,58,-5,-4,-6,
Cc1ccc(NC(=O)CC2S/C(=N/c3nccs3)N(C)C2=O)c(C)c1 (stereo unspecified),i,0,-3,1,-22,/,/,7,
COc1ccc(/C=C2\SC(=O)N(CCC(=O)Nc3ccc(S(=O)(=O)Nc4nccs4)cc3)C2=O)cc1,i,-2,0,-5,/,-20,0,10,
O=C(Nc1nc2c(s1)CN(Cc1ccccc1)CC2)c1cccc(S(=O)(=O)N2CCc3ccccc32)c1,i,2,-18,-2,2,-13,41,1,
O=P(OC1CCCCC1)(OC1CCCCC1)C(O)c1ccc(Cl)cc1Cl (stereo unspecified),i,-2,-22,-16,-18,61*,/,-8,
CS(=O)(=O)N(CC(=O)N1CCN(c2cccc(Cl)c2)CC1)c1cccc(F)c1,i,-12,3,-1,21,/,8,0,
O=C(Nc1ccncc1)c1ccccc1-c1ccccc1,i,0,-1,2,/,9,-5,5,
COc1ccc(N2C(=O)CSC23CCCCC3)cc1,/,0,-2,-2,37,-324,-6,-6,
Cc1cc(NC(=O)CSc2n[nH]c(CC(C)C)n2)no1,/,4,-3,8,-9,/,-3,-6,
CC(=O)c1sc2nc(-c3cccs3)cc(C(F)(F)F)c2c1N,i,66,-17,4,-7,/,-22,45,eIF4H FP inh retest=-11;PABP FP inh retest=-3
O=C1c2ccccc2C(O)N1Cc1ccco1 (stereo unspecified),i,5,2,8,-6,3,/,0,
Cc1ccc(C(C2=C(O)CC(C)(C)CC2=O)C2C(=O)CC(C)(C)CC2=O)o1 (stereo unspecified),i,2,1,2,12,-54,11,-2,
O=C(CSc1nnnn1-c1ccc(Cl)cc1)N1CCc2ccccc2C1,i,5,6,8,0,9,/,-6,
O=C(O)c1ccc(S(=O)(=O)c2ccc3c(c2)C(=O)N(Cc2ccco2)C3=O)cc1,i,82,-2,3,-15,/,8,1,eIF4H FP inh retest=-2;PABP FP inh retest=5
Cc1ccc(CSc2ccc3nnc(-c4cccnc4)n3n2)cc1,i,-3,5,3,-9,/,-16,-8,
CCN1CCN(S(=O)(=O)c2cc(OCC(=O)NC3CCCCC3)c(C)cc2Cl)CC1,i,-12,3,-18,-8,-25,/,-7,
CCCNC(=O)C1(C)CCCN(CCC(=O)c2ccccc2)C1 (stereo unspecified),/,/,0,0,-9,-24,/,/,
COc1ccccc1C(=O)NC(CCSC)C(=O)OC(C)C(N)=O (stereo unspecified),i,40,4,0,/,-8,-10,2,
O=C(CSc1nccc(=O)[nH]1)Nc1ccc(F)c(Cl)c1,i,1,2,2,-8,34,4,-5,
CCc1cccc(C)c1NC(=O)CSc1nnc(-c2ccco2)n1N,i,0,2,3,-17,-4,-4,6,
Cc1cccc(NC(=O)C2CCN(S(=O)(=O)c3c(C)nn(C)c3C)CC2)n1,i,5,0,-5,-16,5,-1,-11,
COCCOC(=O)c1c(NC(=O)COC(=O)Cc2cccc(OC)c2)sc(C(N)=O)c1C,i,11,-7,-2,-9,26,-19,-2,
CSc1cccc(NC(=O)CCCOc2ccc(Cl)cc2C)c1,i,-23,5,5,/,19,15,-2,
CCC(=O)Nc1cccc(-c2nnc(-c3ccccc3)o2)c1,i,/,8,3,-8,-23,-4,/,
COc1ccc(/C=C/c2c(-c3ccc(OC)cc3)oc3ccc(-c4ccc(OC)cc4)cc23)cc1,i,-5,1,2,-19,8,10,-9,
CC(C)CNC(=O)c1ccccc1NC(=O)c1ccccc1N(C)S(C)(=O)=O,i,-5,1,3,-14,/,/,1,
COc1ccc(NC(=O)CN(c2cc(C)cc(C)c2)S(=O)(=O)c2c(C)noc2C)cc1,i,-1,-4,2,-15,-12,/,-4,
COc1ccc(N2CCN(C(=O)c3ccc(SC)cc3OC)CC2)cc1,i,-4,1,0,/,7,0,-1,
COc1ccc(CCNC(=O)CC2SC(=NCc3ccccc3OC)NC2=O)cc1 (stereo unspecified),i,-8,-3,-2,/,-3,1,-3,
COc1ccccc1NC(=O)CCSc1nc(C)cc(C)n1,i,5,-4,0,/,19,1,5,
COc1ccc(/C=C(\NC(=O)c2ccc(C)cc2)C(=O)NCCCn2ccnc2)cc1OC,i,2,-2,3,-12,-10,/,2,
CC(=O)Nc1cc(-c2ccc(N)nc2)cn2c(-c3cccc(C(F)(F)F)c3)cnc12,/,/,-6,1,-7,13,/,/,
COc1ccc(CNC(=O)C2CCCN(C(=O)Nc3ccc(OC)cc3)C2)cc1 (stereo unspecified),i,1,-1,-2,4,2,-4,-4,
Cc1cc(=O)oc2c(C)c(OCC(=O)c3ccccc3)ccc12,i,3,-1,-5,-11,-28,-8,3,
COc1cccc(C(C(=O)NC2CCCCC2)N(CCN2CCOCC2)C(=O)C2COc3ccccc3O2)c1 (stereo unspecified),i,2,-5,-2,-1,-10,-9,-6,
COc1ccc(C2CC(c3ccccc3)=NN2C(=O)CSc2nnnn2-c2cccc(C)c2)cc1 (stereo unspecified),i,/,-6,-1,-1,-7,1,/,
CN(C)CCNS(=O)(=O)c1ccc2c3c(cccc13)C(=O)N2,i,4,-2,-2,-19,-11,-7,9,
O=C(NC(=S)Nc1cc(S(=O)(=O)N2CCOCC2)ccc1N1CCOCC1)C1CCCC1,i,2,/,/,/,/,4,-1,
CSc1c(-c2ccccn2)c(N)nn1C(=O)C1CCC1,i,8,-1,3,/,-29,-4,4,
CCOC(=O)c1c(C2CC2)csc1NC(C)=O,i,-2,-7,-1,-19,-133,12,4,

# More entries
SMILES,Rce1 inh,PABP FP inh,MT1-MMP act inh,MT1-MMP act inh RFP,Yeast UUG start,HIV Env fusion,CSC inhib,eIF4H FP inh,others
CC(C)(C)OC(=O)N[C@H](Cc1ccccc1)C(=O)N1CCC[C@@H]1C(=O)O,i,5,1,2,-2,9,-9,2,
C=CCNC(=O)C1CCC(C(=O)NCC=C)CC1 (stereo unspecified),i,-16,2,3,-18,-4,-6,-1,
COc1ccccc1CCNC(=O)c1cccc(S(=O)(=O)N2CCc3ccccc3C2)c1,/,/,-8,-6,-12,14,/,/,
CSc1nc(C)c(Cc2ccccc2)c(=O)[nH]1,i,15,0,3,-11,-9,-4,6,
O=C(CCc1ccccc1)Nc1ccc(S(=O)(=O)NC2=NCCCCC2)cc1,/,/,1,0,-7,/,-1,/,
C=CCn1c(C)nnc1SCC(=O)N1c2ccccc2NC(=O)C1(C)C,/,/,-1,6,-18,9,/,/,
COc1ccccc1OCCSc1nc2ccccc2n1CC(=O)O,/,/,5,8,-1,-20,/,/,
O=C(O)c1ccc(/C=C2\COc3ccccc3C2=O)cc1,i,3,-11,-20,/,23,-13,-7,
COC(=O)c1sccc1NC(=S)Nc1ccc(C)cc1,i,-3,2,4,/,0,2,1,
Cc1c(OCC(=O)N[C@@H](CSCc2ccccc2)C(=O)O)ccc2c3c(c(=O)oc12)CCC3,i,12,5,7,-6,/,/,-9,

# The last two entries of the section before open the next one.
SMILES,Rce1 inh,PABP FP inh,MT1-MMP act inh,MT1-MMP act inh RFP,Yeast UUG start,HIV Env fusion,CSC inhib,eIF4H FP inh,others
COC(=O)c1sccc1NC(=S)Nc1ccc(C)cc1,i,-3,2,4,/,0,2,1,
Cc1c(OCC(=O)N[C@@H](CSCc2ccccc2)C(=O)O)ccc2c3c(c(=O)oc12)CCC3,i,12,5,7,-6,/,/,-9,
O=C(CSc1nc2ccccc2s1)NC1CCCc2ccccc21 (stereo unspecified),i,-2,-3,1,-17,32,19,-3,
CC1(C(=O)NS(=O)(=O)Cc2cccc(Cl)c2)CCN1C(=O)c1ccc(C2CCCCC2)cc1 (stereo unspecified),/,/,1,5,-2,19,/,/,
CCOc1ccc(NC(=O)Nc2cnccn2)cc1,i,9,3,-3,/,-26,11,8,
Cc1noc(C)c1C(=O)N1CCC(CO)(Cc2ccccc2)CC1,i,-3,0,1,/,0,-8,-11,
CC(C)Cn1c(NCCO)nc2ccccc21,i,-4,3,2,-7,-58,-5,-12,
CN(C)c1ccc2c3c(ccc(N(C)C)c13)COC2,i,3,2,2,/,13,-8,-1,
COC(=O)c1ccccc1NC(=O)CSc1nnnn1CC(=O)O,i,-2,1,6,-11,-3,/,-3,
CC(C)Cc1nc2oc3c(N4CCN(CCO)CC4)ncnc3c2c2c1CCCC2,i,-2,7,-5,-4,-68,19,-4,
CCOC(=O)C1C2C=CC3(CN(CCc4ccccc4)C(=O)C13)O2 (stereo unspecified),i,-5,-9,-4,-6,-12,-9,-3,
Cc1ccc2nc(-c3cccc(NC(=O)c4ccco4)c3)[nH]c2c1,i,11,12,6,-13,/,3,4,
COc1cc(C(=O)NCC(=O)N/N=C/c2ccc(OC(=O)c3ccco3)cc2)cc(OC)c1OC,i,1,7,7,/,1,1,23,
CC(C)(C)c1csc(NC(=O)c2c(F)c(F)c(F)c(F)c2F)n1,i,2,-4,-5,-14,-3,52,-3,
O=C1c2ccccc2C(=O)N1CCCSc1nc2ccccc2o1,i,-7,8,0,-4,/,8,-4,
CN(Cc1ccc(C(F)(F)F)cc1)C(=O)C1CC(=O)N(Cc2ccco2)C1 (stereo unspecified),/,/,3,1,-2,/,-12,/,
Cc1cc(C(=O)OCC(=O)NC2CCCCC2)c(C)o1,i,1,-2,-4,-14,-205,3,2,
Cc1cccc(OCCCN2CCCCCC2)c1,/,10,5,5,-13,/,8,2,
CCN(CC)C(=O)/C(=C\c1ccc2c(c1)OCO2)NC(=O)c1ccc(Br)cc1,i,-4,4,3,/,-23,/,5,
COCc1cc(C)nc(N)c1C#N,i,9,3,0,-16,/,11,1,
COc1ccc(N2CCN(C(=O)c3oc4ccccc4c3C)CC2)cc1,i,7,4,0,/,11,0,5,
COCCCNC(=O)CN(c1cc(OC)ccc1OC)S(=O)(=O)c1ccccc1,i,0,-8,-1,0,-11,-13,-7,
COc1ccc(C(CNCC(O)COc2c(C)ccc(C)c2C)N(C)C)cc1 (stereo unspecified),i,7,3,1,-12,-3,10,11,
